Screens as filed in PubChem BioAssay.
Beta cell apopt – blocks beta cell apoptosis; INS-1E cytokine-induced death, ATP luminescence, 48 h; percent of positive-control rescue, neutral wells zero; protection from apoptosis, % (test concentration not listed); 300,000 tested, 0.8% active;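 active means all replicates at 75% or more, or half of them and the mean; inconclusive means half reach 75% but not the mean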;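 further: 0% = cytokine-treated negative control wells and 100% = positive control rescue; higher means more ATP so stronger rescue from cytokine killing; wells of about 40 µL received 100 nL stock; the first replicate is given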
Calb FLC – affects C. albicans growth with fluconazole; C. albicans CaCi-2 (fluconazole-resistant clinical isolate) + fluconazole, Alamar Blue growth, 48 h; growth inhibition, % (no concentration beside the values); 300,000 tested, 0.57% active; AID 1979;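 active means most replicates above 75%; inconclusive means exactly half above 75%; inactive means most below 75%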;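 further: all wells also contain fluconazole at 8 µg/ml as a sub-toxic cotreatment; 0% = median of DMSO wells and 100% = median of geldanamycin control wells; wells of about 8 µL received 7.5 nL stock; the first replicate is given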
ALR inh – human ALR oxidase inhibition via reduced H2O2; P55789; purified ALR, DTT oxidation, H2O2 HRP-luminol luminescence; inhibition, % (test concentration not listed); 290,000 tested, 3.8% active; AID 485317;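 active means mean and each replicate at 75% or more; inconclusive means only one of the two met; inactive means neither met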;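 further: stock transfer was 7.5 nL into about 7.5 µL; 0% = neutral wells and 100% = wells with inactivated enzyme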
Target sequence (P55789 whole entry, looked up): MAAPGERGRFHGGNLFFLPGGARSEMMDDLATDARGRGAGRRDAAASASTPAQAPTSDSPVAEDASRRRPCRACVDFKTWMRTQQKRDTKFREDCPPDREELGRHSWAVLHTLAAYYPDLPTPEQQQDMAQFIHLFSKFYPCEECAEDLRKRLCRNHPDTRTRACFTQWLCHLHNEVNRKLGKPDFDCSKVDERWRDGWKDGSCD
Ecoli rRNA inh – inhibitors of bacterial rRNA selective over humanized ribosomes; E. coli WT GFP vs humanized-ribosome RFP mutants, fluorescence, 24 h; active compounds read low; DMSO median 0, no signal -100; GFP signal change (wild-type ribosome), % (no concentration beside the values); 350,000 tested, 1.6% active;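 active means significant combined selectivity score with lowered wild-type GFP, culture density cut under 30%, mutant RFP and density less affected; inactive means any of these conditions unmet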; further: one replicate is shown; some compounds called inactive have numbers as strong as hits
MLL AF4-AF9 inh – MLL-AF4/AF9 protein interaction inhibition. AlphaScreen, biotin-AF4 peptide binding to FLAG-AF9. inhibition, % at 10 µM. 350,000 tested, 0.47% active. AID 651704;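 active means every replicate reaching a set inhibition limit, whatever the replicate mean, cut at about 25% in these data; inconclusive means mean inhibition reaches that limit but some replicates miss it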;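 further: 0% = plate neutral control median and 100% = total signal loss; the record names both 10 and 1 µM as test concentration; the first replicate is given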
Target sequence (P42568 whole entry, looked up): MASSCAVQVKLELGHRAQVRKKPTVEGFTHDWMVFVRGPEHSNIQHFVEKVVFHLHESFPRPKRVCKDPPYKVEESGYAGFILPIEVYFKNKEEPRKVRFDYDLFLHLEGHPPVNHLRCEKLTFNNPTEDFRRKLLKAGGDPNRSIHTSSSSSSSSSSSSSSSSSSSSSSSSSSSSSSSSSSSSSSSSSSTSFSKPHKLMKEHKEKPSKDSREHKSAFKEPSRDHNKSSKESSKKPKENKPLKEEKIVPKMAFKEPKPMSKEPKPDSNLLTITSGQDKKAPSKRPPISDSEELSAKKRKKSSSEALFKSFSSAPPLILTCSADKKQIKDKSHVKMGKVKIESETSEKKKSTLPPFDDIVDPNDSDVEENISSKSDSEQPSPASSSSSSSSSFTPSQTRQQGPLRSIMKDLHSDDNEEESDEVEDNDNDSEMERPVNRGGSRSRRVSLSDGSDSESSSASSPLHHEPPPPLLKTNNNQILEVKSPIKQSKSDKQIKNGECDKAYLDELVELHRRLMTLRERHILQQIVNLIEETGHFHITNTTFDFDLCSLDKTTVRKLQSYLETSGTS
RanGTP-Impb inh – disruptors of Ran-importin-beta complex formation – biochemical, FRET, CFP-Ran, YFP-importin-beta, homogeneous, primary screen | cell-free CFP-Ran/YFP-importin-beta FRET ratio | inhibition, % (no concentration beside the values) | 300,000 tested, 1.1% active | AID 2216;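 active means most replicates above 15%; inconclusive means exactly half above 15%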;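 further: 0% = DMSO wells and 100% = Ran loaded with GDP instead of GTP; wells of about 40 µL received 100 nL stock; the first replicate is given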
T cruzi repl – T. cruzi replication inhibition; T. cruzi beta-gal in NIH3T3, luminescence, 90 h; inhibition, % (concentration not given with the values); 300,000 tested, 1.4% active;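 active means mean inhibition across valid replicates above about 55%, limit read from the data; inconclusive means mean below that limit but half or more replicates reach it; inactive means mean below it, under half of replicates reach it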;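 further: signal also drops with host cell toxicity which is not excluded here; 0% = plate median of DMSO wells and 100% = zero luminescence signal; higher percent means less beta-gal luminescence so fewer parasites; stock transfer was 50 nL into about 50 µL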
FGF22 binding – FGF22 (human) thermal shift binding. Q9HCT0. recombinant FGF22 thermal shift, SYPRO orange fluorescence; percent of sucrose octasulfate shift, DMSO zero. calls only at 9.99 µM. 340,000 tested, 1.5% active;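 active means melting point raised past a set limit in the mean and every replicate; inconclusive means no clear call; three in four hits are not shown here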
Target sequence (Q9HCT0 whole entry, looked up): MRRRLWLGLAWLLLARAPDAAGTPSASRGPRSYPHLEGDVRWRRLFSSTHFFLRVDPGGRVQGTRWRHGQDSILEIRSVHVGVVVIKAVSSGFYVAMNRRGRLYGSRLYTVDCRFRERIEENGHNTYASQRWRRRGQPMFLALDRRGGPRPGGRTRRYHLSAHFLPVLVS
Ecoli rRNA inh OD600 – second read-out of Ecoli rRNA inh, no call of its own (marks repeat the call); OD600 change, %; measured here: OD600 growth;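 optical density of the mix in the first replicate; 0 = DMSO median and -100 = no signal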
Ecoli rRNA inh RFP – second read-out of Ecoli rRNA inh, no call of its own (marks repeat the call); RFP signal change, %; measured here: RFP humanized mutant strains;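 first replicate; 0 = DMSO median and -100 = no signal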
The depositor's hits bear a star; i = inactive; ? = inconclusive; . = not tested or not shown; & = joins results of further samples. The list is partial. The share of hits here may be higher or lower than overall.

SMILES,Beta cell apopt,Calb FLC,ALR inh,Ecoli rRNA inh,Ecoli rRNA inh OD600,Ecoli rRNA inh RFP,MLL AF4-AF9 inh,RanGTP-Impb inh,T cruzi repl,FGF22 binding
CCN1CCN(C(=O)c2ccc(N3CC4CC(C3)c3cccc(=O)n3C4)c(NC(=O)c3cc(OC)cc(OC)c3)c2)CC1 (centres undefined),-5,2,-1,1,9,-0.9,-0.2,0.4,-5,i
Cc1noc(C)c1COc1ccc(C(=O)NCCOc2ccccc2)cc1,4,.,.,-5,-2,-0.8,-1.5,.,.,i
Cc1ccc(S(=O)(=O)N(CC(=O)NCCC2=CCCCC2)Cc2ccccc2)cc1,-11,7,.,.,.,.,.,?,43,.
Cc1ccc(NC(=O)CN2C(=O)S/C(=C\c3cc(Cl)c(OCC(=O)O)c(Cl)c3)C2=O)cc1,5,3,48,0,8,-4.8,0.6,2.9,0,i
Cc1ccc(S(=O)(=O)NC(=O)COc2ccc(Cl)cc2Cl)cc1,-6,10,4,-20,-13,-6.6,-3.1,-0.2,-12,i
O=C(Nc1ccccc1N1CCN(C(=O)c2ccc(Cl)cc2)CC1)c1ccc2c(c1)OCO2,4,32,-19,.,.,.,.,-1.5,49,.
O=C1O/C(=C\c2ccccc2)c2ccccc21,-1,7,-2,-5,-3,-1.6,13,4.2,-28,i
CCOC(=O)c1c(C)[nH]c(C)c1C(=O)COC(=O)CCc1ccccc1,-10,.,7,-5,-8,-8.3,3.1,.,.,i
CN(Cc1ccc(F)cc1)C(=O)CN1C(=O)c2ccccc2S1(=O)=O,-4,.,2,4,3,-0.6,-1.8,.,.,.
CCc1noc(C)c1C(=O)NCCc1ccccc1,-5,.,-2,9,14,-1.2,0.3,-5.7,-4,i
S=C(Nc1ccc(Oc2ccccc2)cc1)Nc1cccnc1,0,-8,-19,-7,-11,-2.8,1.6,3.7,-9,i
CSCCNCc1cn(-c2ccc(F)cc2F)nc1-c1ccccc1C,-2,-1,-43,-13,-14,6.2,4.9,-2.0,0,i
CC(c1cccnc1)N(CCN(C)C)C(=O)Nc1ccc(Cl)cc1 (centres undefined),-5,-9,-15,-2,10,-6.0,1.7,0.5,10,i
O=C(CCN1N=C(c2ccccc2)CCC1=O)NCCCN1CCOCC1,1,-6,-1,6,8,-0.3,-2.6,8.6,6,i
COc1ccc(-n2nnnc2SCC(=O)Nc2nc3c(s2)CCCC3)cc1,0,-5,10,.,.,.,.,-2.1,15,.
Nc1ncc(Br)cc1S(=O)(=O)NCCC(=O)Nc1cccc(Cl)c1,-7,-1,-2,-5,-10,-0.7,-1.9,4.6,14,i
COc1ccccc1C(=O)NCCN1CCN(c2ccccc2)CC1,.,-7,97*,1,2,-2.8,0.7,1.4,-8,i
O=C(Nc1ccccc1)C1=C[C@H](c2csc3ccccc23)C[C@H](OCCCCO)O1,-4,12,.,1,-5,-6.5,0.1&1.8&0.1,-3.0,14,i
CCC(C)C(NC(=O)c1ccccc1NC(=O)c1ccco1)C(=O)NNC(=O)c1ccc(OC)cc1 (centres undefined),-4,-4,0,8,6,2.0,-0.5,-0.2,1,i
O=C(Nc1ccccc1C(=O)O)c1ccc(NC(=O)c2ccc(Br)o2)cc1,-4,-12,16,-28,-30,-22,5.1,-4.7,-5,i
O=C(NC1CCCCC1)c1cc2nc(-c3ccco3)cc(C(F)(F)F)n2n1,.,-11,.,.,.,.,0.0,5.9,17,.
NC(=O)c1cccnc1Sc1ccc(Cl)cc1,-3,-3,-6,2,5,-2.7,1.2,-2.7,-13,i
O=C(Cn1cnc2ccccc21)N/N=C/c1ccccn1,-4,-22,99*,.,.,.,.,1.2,31,.
O=C(NCc1ccc(F)cc1)C(c1ccco1)N(C(=O)c1csnn1)C1CC1 (centres undefined),-4,25,-1,.,.,.,-0.4,-1.7,-11,i
COC(=O)C1CC(=O)N(CCc2c[nH]c3ccccc23)C1 (centres undefined),2,3,-1,.,.,.,.,1.0,-10,.
CC1(C)CC(=O)C(=C2SCCCS2)C(=O)C1,-3,8,-11,.,.,.,.,1.1,-7,.
O=S(=O)(Nc1ccc(Cc2ccncc2)cc1)N1CCCC1,0,-15,.,.,.,.,.,-0.4,13,.
CS(=O)(=O)c1ccccc1C(=O)NCCC(c1ccccc1)c1ccccc1,-7,6,.,-3,-13,4.0,2.5,0.2,0,i
COc1ccc(CNC(=O)[C@H](C)[C@@H]2C[C@@]2(C)[C@@H](NC(=O)OCc2ccccc2)c2ccccc2)cc1OC,.,-7,-3,-6,-9,-3.7,1.4,3.7,-21,i
COc1ccc(CCNC(=O)c2c(C)nn(CC(C)C)c2Cl)cc1,3,3,-1,.,.,.,-0.1,2.9,-1,i
COc1cc(/C=N/NC(=O)c2cccnc2)ccc1OCC(=O)Nc1c(C)cc(C)cc1C,-1,8,-15,.,.,.,.,-2.1,-5,.
CCCNC(=O)C(NS(=O)(=O)c1ccc2c(c1)c(=O)n(C)c(=O)n2C)c1ccccc1 (centres undefined),-2,0,1,6,5,-2.0,3.5,1.1,1,i
CC(C)C(NS(=O)(=O)c1cccs1)C(=O)NCCCN1CCCCCC1 (centres undefined),-3,2,1,28,24,3.6,8.0,3.2,8,i
Cc1ccc(S(=O)(=O)N2CCOCC2)cc1NC(=O)COc1cccc(-n2cnnn2)c1,1,.,-3,2,0,-0.4,-1.6,.,.,i
CCCN1C(=S)c2ccccc2C1c1ccccc1 (centres undefined),-4,5,-8,-41,-59,-14,-1.6,-0.7,1,i
O=C(CCCn1c(SCC(=O)Nc2ccccc2Cl)nc2ccccc2c1=O)NCC1CCCO1 (centres undefined),4,-5,-4,-3,-5,-0.5,0.2,2.1,-6,i
COC(=O)C1=C(C)OC(N)=C(C#N)C1c1ccc(OC)c(OC)c1OC (centres undefined),-4,?,2,.,.,.,.,-3.2,-7,.
COc1cc2cc(CN(Cc3cccs3)C(=S)Nc3ccc(C)cc3)c(=O)[nH]c2cc1OC,18,6,-18,0,-6,-6.7,-13,0.6,32,i
S=c1[nH]nc(COc2ccccc2)n1/N=C/C=C/c1ccco1,-3,-14,97*,-4,7,-3.2,.,-4.3,-12,i
COc1ccccc1CCc1nnc(CCC(=O)NCC2CCCO2)o1 (centres undefined),-8,-39,-2,12,18,2.5,0.5,1.5,-18,i
O=C1NC(c2ccco2)Nc2ccccc21 (centres undefined),-5,-3,-3,.,.,.,.,1.5,-5,.
CCCCCCCCCC(=O)N1c2ccccc2NC(=O)C1CC(=O)Nc1ccc(C(=O)O)cc1 (centres undefined),-3,-7,8,-4,7,18,-9.8,3.0,-4,i
O=C(Nc1ccccc1C(=O)N1CCOCC1)c1ccc(Cl)cc1,2,-23,-2,6,12,1.3,-0.7,1.1,-15,i
Cc1noc(NS(=O)(=O)c2ccc(N/C=C/C(=O)c3cccnc3)cc2)c1C,2,3,11,.,.,.,.,?,-19,.
CCOC(=O)c1c(NC(=O)CSc2nc(C)cc(C)c2C#N)sc(C(C)=O)c1C,1,2,-8,.,.,.,.,1.7,38,.
COc1ccccc1-c1csc(NC(=O)c2ccc(N3C(=O)CCC3=O)cc2)n1,2,12,-4,9,7,0.6,-0.4,-2.6,-14,i
CC1NC(=O)N(C)[C@@H]2NC(=O)N(C)C(c3ccc([N+](=O)[O-])cc3)[C@@H]12 (some centres undefined),-3,2,.,-5,2,-2.8,-9.0,5.0,-5,i
COc1ccc2oc(C(=O)OCC(=O)NCCc3ccc(S(N)(=O)=O)cc3)c(C)c2c1,1,.,-6,6,5,2.0,-1.1,.,.,i
O=C(Cn1nnc(-c2ccc3c(c2)OCO3)n1)NCc1ccco1,-7,-6,-1,.,.,.,.,5.3,5,.

15 compounds out of the list, sorted by length of the SMILES, highest first.
SMILES,Beta cell apopt,Calb FLC,ALR inh,Ecoli rRNA inh,Ecoli rRNA inh OD600,Ecoli rRNA inh RFP,MLL AF4-AF9 inh,RanGTP-Impb inh,T cruzi repl,FGF22 binding
CC1NC(=O)N(C)[C@@H]2NC(=O)N(C)C(c3ccc([N+](=O)[O-])cc3)[C@@H]12 (some centres undefined),-3,2,.,-5,2,-2.8,-9.0,5.0,-5,i
CCCNC(=O)C(NS(=O)(=O)c1ccc2c(c1)c(=O)n(C)c(=O)n2C)c1ccccc1 (centres undefined),-2,0,1,6,5,-2.0,3.5,1.1,1,i
COc1cc2cc(CN(Cc3cccs3)C(=S)Nc3ccc(C)cc3)c(=O)[nH]c2cc1OC,18,6,-18,0,-6,-6.7,-13,0.6,32,i
CCCCCCCCCC(=O)N1c2ccccc2NC(=O)C1CC(=O)Nc1ccc(C(=O)O)cc1 (centres undefined),-3,-7,8,-4,7,18,-9.8,3.0,-4,i
COc1cc(/C=N/NC(=O)c2cccnc2)ccc1OCC(=O)Nc1c(C)cc(C)cc1C,-1,8,-15,.,.,.,.,-2.1,-5,.
O=C(CCCn1c(SCC(=O)Nc2ccccc2Cl)nc2ccccc2c1=O)NCC1CCCO1 (centres undefined),4,-5,-4,-3,-5,-0.5,0.2,2.1,-6,i
Cc1noc(NS(=O)(=O)c2ccc(N/C=C/C(=O)c3cccnc3)cc2)c1C,2,3,11,.,.,.,.,?,-19,.
COc1ccccc1-c1csc(NC(=O)c2ccc(N3C(=O)CCC3=O)cc2)n1,2,12,-4,9,7,0.6,-0.4,-2.6,-14,i
COC(=O)C1=C(C)OC(N)=C(C#N)C1c1ccc(OC)c(OC)c1OC (centres undefined),-4,?,2,.,.,.,.,-3.2,-7,.
CC(C)C(NS(=O)(=O)c1cccs1)C(=O)NCCCN1CCCCCC1 (centres undefined),-3,2,1,28,24,3.6,8.0,3.2,8,i
S=c1[nH]nc(COc2ccccc2)n1/N=C/C=C/c1ccco1,-3,-14,97*,-4,7,-3.2,.,-4.3,-12,i
O=C(Nc1ccccc1C(=O)N1CCOCC1)c1ccc(Cl)cc1,2,-23,-2,6,12,1.3,-0.7,1.1,-15,i
COc1ccccc1CCc1nnc(CCC(=O)NCC2CCCO2)o1 (centres undefined),-8,-39,-2,12,18,2.5,0.5,1.5,-18,i
CCCN1C(=S)c2ccccc2C1c1ccccc1 (centres undefined),-4,5,-8,-41,-59,-14,-1.6,-0.7,1,i
O=C1NC(c2ccco2)Nc2ccccc21 (centres undefined),-5,-3,-3,.,.,.,.,1.5,-5,.
